# NPYLR7 agonist = mosquito NPYLR7 agonism; HEK293T NPYLR7/Galpha15, GCaMP6s calcium fluorescence; hit rate 0.15% among 270,000; activation, % at 10 µM; in the data active = activation above about 40%;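 also: 0% = vehicle and 100% = reference agonist at the receptor; some compounds past the cut are filed as inactive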
# NPYLR7 agonist max-min = also measured in NPYLR7 agonist; calls as there; activation, %; measured here: Max-Min RFU normalised activation; some inactives read as strong as hits;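 span of the calcium signal over five minutes; 0% = vehicle and 100% = native peptide agonist; compound fluorescence can raise it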
# The depositor's hits bear a star; & = joins results of further samples. Only part of the results is shown (hit frequency here may not be typical).
Structure	NPYLR7 agonist	NPYLR7 agonist max-min
CC(C)C(C(=O)N1CCC(n2c(Cc3ccccc3)nc3ccccc32)CC1)c1ccccc1 (stereo not drawn)	3	3
COc1ccc(CCNC(=O)c2cc3ccsc3n2Cc2cccc(F)c2)cc1OC	-2	5
COc1ccc(C(=O)Nn2c(-c3ccncc3)n[nH]c2=S)cc1	-1	-1
COCCNC(=O)C1(C)CCCN(Cc2cccc(OC(=O)c3ccccc3)c2)C1 (stereo not drawn)	6	-2
Cc1cc(N(C)/N=C\c2ccc(O)cc2)nc(-c2ccccc2O)n1	-20	-23
CC(Cn1cncn1)NCc1cc(-c2ccc(F)cc2)no1 (stereo not drawn)	15	13
COc1cccc(/C=C2/SC(N)=NC2=O)c1O	6	5
CCOC(=O)C1=C(C)NC(C)=C(C(=O)OC)C1c1cc(Br)ccc1OC(F)F (stereo not drawn)	0	-2

# Other results.
Structure	NPYLR7 agonist	NPYLR7 agonist max-min
CNc1cncc(-c2cccc(S(C)(=O)=O)c2)n1	3	1
COc1ccc(CN(C)c2ncccc2C#N)cc1OC	5	4
O=C(c1csnn1)N1CCC(C2CCN(c3ncccn3)CC2)C1 (stereo not drawn)	-15&5	-14&2
CC1(C(=O)NCCc2c[nH]c3ccccc23)CCN1Cc1csc2ccccc12 (stereo not drawn)	14	9
Cc1[nH]nc2c1C(=O)CCC2	-2	-3
COCCCN1C(=O)C(=Cc2c(NCCCO)nc3ccccn3c2=O)SC1=S	24	21
CCCCN(C(=O)c1nc2nccc(C)n2n1)c1ccccc1	-1	-4
CN(C)C(CNc1ncnc2cc(Cl)ccc12)c1ccco1 (stereo not drawn)	8	13

# Whole records from above. Values in the order: NPYLR7 agonist	NPYLR7 agonist max-min
# `CNc1cncc(-c2cccc(S(C)(=O)=O)c2)n1` is entered as 3	1
# `CC(Cn1cncn1)NCc1cc(-c2ccc(F)cc2)no1` (stereo not drawn) is entered as 15	13
# `Cc1cc(N(C)/N=C\c2ccc(O)cc2)nc(-c2ccccc2O)n1` is entered as -20	-23
# `CC1(C(=O)NCCc2c[nH]c3ccccc23)CCN1Cc1csc2ccccc12` (stereo not drawn) is entered as 14	9
# `COc1ccc(CN(C)c2ncccc2C#N)cc1OC` is entered as 5	4

# (next part)
Structure	NPYLR7 agonist	NPYLR7 agonist max-min
CCCNC(=O)NC(=O)CSc1nnc(-c2ccc(Cl)cc2)n1CCC	0	-2
CC(Cc1ccncc1)OC(=O)CCc1ccccc1 (stereo not drawn)	0	-3
CCC1CN(Cc2csc(NC)n2)CCC(=O)N1Cc1ccccc1 (stereo not drawn)	0	-2
Cc1nn(-c2ccc(F)cc2F)c(C)c1C(=O)NCC1CCCS1 (stereo not drawn)	5	5
COc1ccc(N(C)C(=O)c2ccc(Cn3nc(NC(=O)C(C)C)c4ccccc43)cc2)cc1	15	19
Cc1cc(NC(=O)c2cc(F)cc(F)c2)ccc1N(C)C	6	6
Cc1cc(NC(=O)CSc2nc3ccccc3c(=O)n2NC(=O)c2ccccc2)n[nH]1	4	3
O=C1CC(Nc2nccc(C3CCCC3)n2)CN1Cc1cccc(F)c1 (stereo not drawn)	-2	-5

# A run of entries from further up, for reference:
Structure	NPYLR7 agonist	NPYLR7 agonist max-min
CC(C)C(C(=O)N1CCC(n2c(Cc3ccccc3)nc3ccccc32)CC1)c1ccccc1 (stereo not drawn)	3	3
COc1ccc(CCNC(=O)c2cc3ccsc3n2Cc2cccc(F)c2)cc1OC	-2	5
COc1ccc(C(=O)Nn2c(-c3ccncc3)n[nH]c2=S)cc1	-1	-1
COCCNC(=O)C1(C)CCCN(Cc2cccc(OC(=O)c3ccccc3)c2)C1 (stereo not drawn)	6	-2
Cc1cc(N(C)/N=C\c2ccc(O)cc2)nc(-c2ccccc2O)n1	-20	-23
CC(Cn1cncn1)NCc1cc(-c2ccc(F)cc2)no1 (stereo not drawn)	15	13

# (continued)
Structure	NPYLR7 agonist	NPYLR7 agonist max-min
CCCc1cc(=O)n(CC(=O)Nc2cccc(C)c2)c(-n2nc(C)cc2C)n1	-3	1
O=C(CCn1nnc2ccccc21)NN=Cc1ccccc1	1	5
CCOC(=O)CC(=O)N1CCc2c([nH]c3ccc(OC)cc23)C1COCc1ccccc1 (stereo not drawn)	-6	-11
CCN(CC(=O)Nc1sc2c(c1C(=O)OC)CCCC2)CC(=O)Nc1c(F)cccc1F	0	20
COc1ccc(CN2CCN(Cc3cnn(C)c3)CC2CCO)c(F)c1 (stereo not drawn)	-5	-6
CCOc1ncccc1CN1CCC(C(=O)NC2CCCCC2)CC1	-1	-2
CN(C(=O)C1CCCCC1)C1(C)CCS(=O)(=O)C1 (stereo not drawn)	1	1
CNC(=O)COC(=O)c1cccn1C	-1	-2

# Carrying on.
Structure	NPYLR7 agonist	NPYLR7 agonist max-min
Cc1nc([N+](=O)[O-])c(Br)n1Cc1cc(=O)n2ccccc2n1	2	1
Cc1ccc(CCC2CCN(C(=O)C3CCC(=O)N3)CC2)cc1 (stereo not drawn)	-22	-22
CC(NC(=O)c1ccc(S(=O)(=O)N2CCOCC2)o1)c1ccc2c(c1)CCC(=O)N2 (stereo not drawn)	-2	-2
COc1ccc(CNc2nnc(SC(C)C(N)=O)s2)cc1 (stereo not drawn)	1	-2
COc1cc2nc(CN3CCCCC3c3nccs3)nc(N3CCCCC3)c2cc1OC (stereo not drawn)	23	10
Cc1ccccc1-c1cc(O)c2c(c1)CN(c1cc(C(C)C)ncn1)CCO2	-5	-5
Cc1cc(-n2cnnc2CN2CCN(c3cccc(C)c3C)CC2)n(C)n1	8	2
CC(C)N(Cc1cnn(C)c1)C(=O)C1CCC(=O)N(Cc2ccccn2)C1 (stereo not drawn)	-4	-6

# Next compounds
Structure	NPYLR7 agonist	NPYLR7 agonist max-min
Clc1ccc(C2=Nc3nnnn3C(c3cccnc3)C2)cc1 (stereo not drawn)	7&-22&-3	13&-25&-7
COC(C(=O)Nc1ccnn1C1CCN(C(=O)c2scnc2C)CC1)c1ccccc1 (stereo not drawn)	5&-3	1&-5
COc1ccc(N(CCCN2C(=O)c3cccc4cccc(c34)C2=O)C(=O)c2ccc(F)cc2)cc1	1	1
Cc1nn(CCC#N)c(C)c1Oc1ccccc1O	-14	-15
Cc1cccc(-n2c(SCc3c(F)cccc3Cl)nnc2-c2ccc(F)cc2)c1	-3	-2
CCCN(Cc1ccc(OC)cc1)C(=O)c1sc(C)nc1CC	-7	-7
O=C(c1cc(=O)c2ccccc2[nH]1)N1CCCC(N2CCCC2)C1 (stereo not drawn)	5	3
COc1ccc(Cn2ccnc2S(C)(=O)=O)cc1F	-2	-1

# More structures follow:
Structure	NPYLR7 agonist	NPYLR7 agonist max-min
CC(C)N(CC(=O)N(CCc1c[nH]c2ccccc12)Cc1ccc(C(F)(F)F)cc1)S(C)(=O)=O	18	17
CCOCCCn1c(SCc2cccc(Br)c2)nc2cc(S(=O)(=O)N3CCCC(C)C3)ccc21 (stereo not drawn)	17	9
O=C(Nc1ccc2[nH]ccc2c1)c1cn2cc(Cl)ccc2n1	-2	-9
Cc1ccc(C(=O)NC(C(=O)NCc2ccco2)C2CCN(C(=O)Cc3ccccc3)CC2)cc1 (stereo not drawn)	4	4
CCOCCn1cc(C2CCN(C(=O)c3ccc(OC)c(OC)c3)CC2)c2ccccc21	2	1
O=C1NCC2(CCCN(C(=O)c3cc(F)cc(Cl)c3)C2)O1 (stereo not drawn)	2	-6
O=C(CCNC(=O)c1cccs1)NCc1ccccc1CN1CCCC1	2	1
O=C(Cn1ccn2nc(-c3ccccc3)cc2c1=O)Nc1ccc(Cl)cc1	4	2

# Filtered by structure, those above containing a cyano group
Structure	NPYLR7 agonist	NPYLR7 agonist max-min
COc1ccc(CN(C)c2ncccc2C#N)cc1OC	5	4
Cc1nn(CCC#N)c(C)c1Oc1ccccc1O	-14	-15

# (further entries)
Structure	NPYLR7 agonist	NPYLR7 agonist max-min
O=C(NCC(O)c1ccccc1)c1ccc(Cl)cc1F (stereo not drawn)	2	0
O=C(COC(=O)CC1CC2CCC1C2)NNC(=O)c1cccs1 (stereo not drawn)	-1	7
Cc1nccn1Cc1ccccc1-n1cnnc1	12	-7
CCCCC(O)CN(Cc1ccc(F)cc1)Cc1c(C)nn(-c2ccccc2)c1Oc1ccccc1OC (stereo not drawn)	-2	1
Cc1onc(-c2ccccc2Cl)c1C(=O)NC(C)c1ccccc1 (stereo not drawn)	-3	-5
COc1ccc(/C=C2\C=C(c3ccccc3)N(c3ccc(-c4ccccc4)cc3)C2=O)cc1Br	-1	5
COc1ccc(CNC(=O)c2c(-c3ccccc3Cl)noc2C)cc1	-1	-7
Cc1cccc(C(=O)Nc2ccccc2C(=O)NC2CC2)n1	1	-3

# (listing goes on)
Structure	NPYLR7 agonist	NPYLR7 agonist max-min
COCCn1c(SCC#N)nc2scc(-c3ccccc3Cl)c2c1=O	-5	-6
O=C(NC1CCCCC1)N1CCN(c2cccc(Cl)c2)CC1	1	2
CCOCCCN(CC(=O)N1CCc2sccc2C1c1ccc(Cl)cc1Cl)C(=O)/C=C/c1ccccc1 (stereo not drawn)	-1	6
CCC1=NOC(Cn2cnc(-c3ccccc3)c2-c2ccc(F)cc2OC)C1 (stereo not drawn)	-3	-1
O=C(c1cccc([N+](=O)[O-])c1)N1CCCC(C(F)(F)F)C1 (stereo not drawn)	0	-2
NC(=O)c1cc2c(nc1-c1cccc3[nH]ccc13)CCC2	-3	6
Cc1ccc(-n2nnc3c(N4CCN(C(=O)c5cc(=O)c6ccccc6o5)CC4)ncnc32)cc1	-4	-14
COCCN(CC(=O)N1CCc2sccc2C1c1ccccc1)C(=O)c1ccc(OC)cc1 (stereo not drawn)	7	8

# Remaining list, next part
Structure	NPYLR7 agonist	NPYLR7 agonist max-min
Cc1cc(N2CCCN(Cc3ccccc3C)CC2)nc(N)n1	7	4
Cc1[nH]c2ccccc2c1C(=O)N1CCN(S(=O)(=O)c2ccccc2Cl)CC1	4	7
CC1CN2C(=O)CN(C(=O)Nc3ccc4c(c3)OCO4)CC2c2ccccc21 (stereo not drawn)	5	11
O=C(Cc1cccs1)NC1CC(=O)N(CCc2ccccc2)C1 (stereo not drawn)	3	1
CC(C)c1ccc(C(=O)N2CCC3(CCCN(C)C3=O)C2)c(=O)n1C (stereo not drawn)	-5	-6
COC(=O)c1c(C)[nH]c(C2=NN(C)C(=NCc3ccccc3)SC2C)c1C (stereo not drawn)	3	3
CN(CC(=O)Nc1ccc(F)c(F)c1)CC1CCCCC1	1	-2
COc1ccc2c(C)nc(N3CCC(NC(C)CCCC(C)(C)O)CC3)nc2c1 (stereo not drawn)	0	-3

# More entries:
Structure	NPYLR7 agonist	NPYLR7 agonist max-min
Cc1nc(CCNc2ccc(-c3nccn3C)nn2)nc2c1CCCC2	9	8
O=C(NCCn1ncc2c(=O)n(Cc3ccccc3F)cnc21)c1cc2ccccc2o1	-5	-9
CCOC(=O)c1[nH]c(C)c(C(=O)C(C)N(CCOC)C(=O)COCc2ccccc2)c1C (stereo not drawn)	-3	9
COc1ccc(CCN(Cc2sccc2C)C(=O)CN(CC(C)C)C(=O)Nc2ccc(C#N)cc2)cc1OC	-4	7
CC(C)NCC(O)COc1cccc2ccccc12 (stereo not drawn)	-2&2&15&-4&1&3	-11&-10&-2&-8&-26&-3
CCc1nc2ccccc2n1CCC(=O)N1CCN2C(=O)CNC(=O)C2C1 (stereo not drawn)	3	0
COc1cc(-c2nc3ccccn3c2NC(C)(C)CC(C)(C)C)ccc1OS(=O)(=O)c1ccc(C(C)(C)C)cc1	10	15
CCN1CCN(C(=O)c2ccc(CSc3nnc(-c4ccncc4)n3-c3ccc(OC)cc3)cc2)CC1	-5	7

# The results go on:
Structure	NPYLR7 agonist	NPYLR7 agonist max-min
Cc1ccc(CCC(=O)N2CCC(Cn3cc(CO)nn3)CC2)cc1C	2	-1
CCc1nc2n(n1)C(=O)C(C(c1cccc(C)c1)N1CCN(C)CC1)S2 (stereo not drawn)	-7	-9
N[n+]1cnn(CC(=O)c2ccccc2)c1	-15	-20
O=C(CNS(=O)(=O)c1cccs1)N1C[C@@H]2C3CCC(CC3)[C@@H]2C1	4	0
CCc1cc(CN(C)C(=O)C(O)c2ccc(Cl)cc2)on1 (stereo not drawn)	4	4
COc1ccccc1CCC(=O)N1CC[C@@H](N)[C@@H](OC)C1	6	3
CCN1CCN(S(=O)(=O)c2ccc(OC)c(N3CCN(C(=O)C(F)(F)C(F)F)CC3)c2)CC1	4	0
O=C(CSc1nnc(Cn2ccc(=O)[nH]c2=O)o1)c1ccc(F)cc1	-1	7

# Additional entries:
Structure	NPYLR7 agonist	NPYLR7 agonist max-min
CC(C)CCN1CC2(CCCN(CCCn3cnnn3)C2)CCC1=O (stereo not drawn)	15	8
CCC(NC(=O)C(=O)Nc1ccc2c(c1)OC(C)(C)O2)c1ccc(OC)cc1 (stereo not drawn)	11	6
O=c1c2ccccc2nc(SCCc2ccccc2)n1Cc1ccco1	-1	17
COc1ccc(CCCN(C)S(=O)(=O)c2ccc(F)c(F)c2)cc1OC	2	4
CC1CCCCC1NC(=O)CN(C)c1ccccc1 (stereo not drawn)	-10	-11
CCCC/C=C/c1cc(N2CCN(C)CC2)n2nccc2n1	-10	-13
CCCCCCCC(=O)Nc1ccc(-n2nc(OCCOC)nc2-c2ccc(Cl)c(Cl)c2)cc1	10	16
O=C(NCc1cc(-c2cc3ccccc3o2)on1)C1CCCC1	0	-1
COc1ccc(C(=O)N(Cc2cccc(C)c2)[C@@H]2CCCCC2NC(=O)[C@H]2CCCN2C(=O)CCc2ccccc2)cc1 (stereo partly drawn)	-4	-1
CC(CNc1cc(-c2ccccc2)c2ccccc2n1)N1CCOCC1 (stereo not drawn)	0	0

# Compound activity: PubChem BioAssay, Fisher Drug Discovery Resource Center
